STK33 inh – inhibitors of purified STK33 kinase, primary screen, biochemical, ADP-Glo luminescence, homogeneous, cell-free | Serine/threonine-protein kinase 33 (Homo sapiens), Q9BYT3 | MBP phosphorylation | inhibition, % at 10 µM | actives 0.073% (n = 320,000);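 active means inhibition at or above 25%, using the most active replicate where run in duplicate; inactive means inhibition below 25%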
Target sequence (Q9BYT3 whole entry, looked up): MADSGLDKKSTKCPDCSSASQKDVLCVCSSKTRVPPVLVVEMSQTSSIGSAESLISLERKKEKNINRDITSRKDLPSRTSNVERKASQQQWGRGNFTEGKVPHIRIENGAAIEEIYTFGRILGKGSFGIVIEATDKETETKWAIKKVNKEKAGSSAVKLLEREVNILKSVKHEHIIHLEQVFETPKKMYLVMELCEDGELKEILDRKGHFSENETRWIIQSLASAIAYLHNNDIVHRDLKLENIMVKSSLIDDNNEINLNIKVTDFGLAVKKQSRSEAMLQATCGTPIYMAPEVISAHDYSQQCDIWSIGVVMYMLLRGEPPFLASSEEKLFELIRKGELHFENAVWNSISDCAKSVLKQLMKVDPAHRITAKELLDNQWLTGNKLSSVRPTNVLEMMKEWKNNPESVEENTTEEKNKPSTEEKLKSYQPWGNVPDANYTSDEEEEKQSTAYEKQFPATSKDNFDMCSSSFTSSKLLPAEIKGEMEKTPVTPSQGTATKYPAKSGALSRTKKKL
Numbers without * were called inactive. The list is partial, and most or all hits are left out here.

#	SMILES	STK33 inh
1	Nc1ccc(C(=O)c2cccs2)cc1[N+](=O)[O-]	0.2
2	CN1CCc2c(sc3nc(SCC(=O)N4CCCCC4)n(-c4ccccc4)c(=O)c23)C1	0.4
3	O=C(Nc1ccccc1)/C(=C/c1ccc(F)cc1)NC(=O)c1ccco1	-2.1
4	CC(=O)Nc1ccc(S(=O)(=O)C(C#N)c2nc3ccccc3nc2NCCO)cc1 (stereo not drawn)	-0.1
5	Cc1ccc(C(=O)c2c3ccc([N+](=O)[O-])cc3[n+]([O-])n2CCCC(N)=O)cc1	0.3
6	CCN(CC(=O)NCc1cccs1)c1ccc(S(=O)(=O)N2CCCC2)cn1	-0.6
7	COc1ccc2c(c1)C(C)CC(C)(C)N2C(=O)Nc1ccccc1 (stereo not drawn)	-1.3
8	O=C(Cn1cc(C(F)(F)F)ccc1=O)Nc1cccc(S(=O)(=O)N2CCOCC2)c1	-0.4
9	Cc1cc(C)n(-c2ncnc3c2oc2ccccc23)n1	1.3
10	COc1ccc(C=O)cc1OC(=O)N1CCOCC1	0.0
11	CCc1cc2c(=O)n(Cc3ccco3)c(SCc3c(C)noc3C)nc2s1	0.9
12	Nc1ccc2nc(CCCCCCCCc3nc4ccc(N)cc4[nH]3)[nH]c2c1	15
13	COC(=O)CNC(=O)C1Nc2ccc(OC(F)(F)F)cc2C2C=CCC12 (stereo not drawn)	-2.0
14	COCCn1c(CN(C)Cc2ccccc2)nc2c1c(=O)n(C)c(=O)n2C	-0.7
15	O=C(NC(=S)Nc1ccccc1N1CCCCC1)c1ccc(-c2cccc([N+](=O)[O-])c2)o1	-0.8
16	COc1ccc(-c2nnc(SCC(=O)Nc3sc4c(c3C#N)CCCC4)n2-c2ccccc2)cc1	-0.8
17	CC(OC(=O)c1ccccc1N1C(=O)C2C3CCC(C3)C2C1=O)C(=O)c1ccccc1 (stereo not drawn)	-1.7
18	CC1=CN2C(=NC(=O)CC2(C)C(=O)N(CC(=O)NC2CCCC2)c2ccccc2C)C=C1 (stereo not drawn)	-0.8
19	COc1ccc(CNC(=O)COC(=O)CCc2nc3ccccc3c(=O)[nH]2)cc1	-1.1
20	C/C(=N\NC(=O)C1COc2ccccc2O1)c1cccs1 (stereo not drawn)	0.0
21	COc1cc(OC)c(C(=O)NCCCn2ccnc2)cc1OC	-2.5
22	O=C(COC(=O)c1ccc2c(c1)OCO2)NCc1ccc2c(c1)OCO2	-1.3
23	COCCNC(=O)CSc1nnc2c(Cl)cc(Cl)cn12	-2.6
24	CC(Oc1cccc2c1OC(C)(C)C2)C(=O)O (stereo not drawn)	1.6
25	C=CCNC(=O)c1onc(CSc2ccc(OC)cc2)c1C(=O)O	-3.1
26	COc1ccc(/C(O)=C2/C(=O)C(=O)N(CCN(C)C)C2c2ccc(F)cc2)cc1Cl (stereo not drawn)	-2.0
27	O=C(OCC(=O)N1CCOCC1)c1ccc(F)cc1Cl	-0.5
28	CCOc1ccc(C(=O)NCC(=O)NCC(c2ccccc2OC)N2CCCC2)cc1 (stereo not drawn)	-0.1
29	CC(Oc1cccc(Cl)c1)C(=O)Nc1cc(Cl)ccc1N1CCOCC1 (stereo not drawn)	-0.6
30	O=S(=O)(Nc1ccccc1O)c1ccc(-c2ccccc2)cc1	-0.8
31	CCOc1ccc(C(C)=O)cc1N1C(=O)C2C3C=CC(C3=C(C)C)C2C1=O (stereo not drawn)	-2.6
32	Cc1cccc(C)c1NC(=O)CNc1ccccc1	-0.8
33	O=C(CSc1nc2ccccc2[nH]1)Nc1ccc2c(c1)OCCO2	-1.4
34	CC(C)(C)NC(=O)/C(=C\c1ccc(Br)cc1)NC(=O)c1cccs1	-1.1
35	CCC(CO)NCc1ccc2c(c1)n(C)c(=O)n2C (stereo not drawn)	-0.7
36	COC(=O)c1ccc([C@@H]2C[C@H]3CN(Cc4cccnc4)C(=O)[C@]34CCCN24)cc1	-2.8
37	O=C(NCc1ccc(Cl)cc1)c1n[nH]c([N+](=O)[O-])c1Cl	0.5
38	COC(=O)c1c(-c2cccc(OC)c2)csc1N	0.1
39	CCOc1cccc2cc(C(C)=O)oc12	-1.4
40	COc1ccc(CCNC(=O)c2ccc3c(c2)NC(=O)C(C(C)C)N3)cc1OC (stereo not drawn)	-0.1

As entered above:
entry 37 | STK33 inh: 0.5
entry 34 | STK33 inh: -1.1
entry 36 | STK33 inh: -2.8
entry 40 | STK33 inh: -0.1

Gathered by group, the compounds so far with an NH in an aromatic ring
#	SMILES	STK33 inh
12	Nc1ccc2nc(CCCCCCCCc3nc4ccc(N)cc4[nH]3)[nH]c2c1	15
19	COc1ccc(CNC(=O)COC(=O)CCc2nc3ccccc3c(=O)[nH]2)cc1	-1.1
33	O=C(CSc1nc2ccccc2[nH]1)Nc1ccc2c(c1)OCCO2	-1.4
37	O=C(NCc1ccc(Cl)cc1)c1n[nH]c([N+](=O)[O-])c1Cl	0.5

Further compounds follow.
#	SMILES	STK33 inh
41	C/C(CC(=O)Nc1cc(C)ccn1)=N\NC(=O)c1ccc(C(C)(C)C)cc1	-0.4
42	O=C(Nc1ccc(-c2ccc3nncn3n2)cc1)c1ccc(Br)o1	1.9
43	NC(=O)C1CCN(C(=O)CSCc2ccccc2Cl)CC1	-1.1
44	COc1ccccc1C(=O)NCC(=O)NCCSc1ccc(Br)cc1	0.6
45	NC(=O)N/N=C/c1ccc2cccc(OCc3ccccc3)c2n1	0.9
46	CC(=O)SCC[N+](C)(C)C	0.0
47	CCCc1ccc(OCc2ccc(C(=O)N/N=C/c3cccc([N+](=O)[O-])c3)o2)c(OC)c1	0.1
48	COc1ccc(-c2sc3ccc(OC)cc3c2-c2ccc(O)cc2)cc1	-0.1
49	O=C(NCc1cccnc1)Nc1cccc(F)c1	-2.1
50	CCN=C1S/C(=C\c2cn(CC(=O)NCc3ccco3)c3ccccc23)C(=O)N1CC	-0.2
51	CN(CC(=O)Nc1ccc(Cl)c(C(F)(F)F)c1)C(=O)CCN1C(=O)C2CCCCC2C1=O (stereo not drawn)	-1.3
52	COc1ccc(C(=O)NC2CCCc3c2cnn3-c2cc(F)cc(F)c2)c(OC)c1OC (stereo not drawn)	-0.5
53	O=C(NCCS(=O)(=O)c1ccc(Br)cc1)c1ccccc1Cl	-1.3
54	COc1cccc(C(=O)NCCC(=O)NCc2cc(=O)n(C)c(=O)n2C)c1	0.1
55	Cc1c(NC(=O)C(C)OC(=O)c2ccc(Cl)nc2)c(=O)n(-c2ccccc2)n1C (stereo not drawn)	-0.1
56	CCC1(C)Cc2c(sc3nc4n(c(=O)c23)CCCS4)CO1 (stereo not drawn)	0.3
57	O=C(O)C1=C[C@H](C2CC2)C[C@H](OCCCCO)O1	0.3
58	COc1ccc(Cl)cc1-c1nc(SCC(=O)N(C)CCC#N)n[nH]1	-0.5
59	O=C(Nc1nc(-c2ccccc2)cs1)c1cccc([N+](=O)[O-])c1	0.6
60	COc1ccc2c(C)c(CCC(=O)NC3CC3)c(=O)oc2c1C	5.6
61	O=C(NCCOC(=O)c1ccccc1C(=O)OCCNC(=O)c1cccnc1)c1cccnc1	-0.2
62	COc1ccc(CCNC(=O)CCn2c(=O)[nH]c3cc(OC)c(OC)cc3c2=O)cc1OC	-0.1
63	O=C(COc1ccccc1)NC1CCCCCCC1	1.1
64	COc1ccccc1CNC(=O)Cc1csc(NC(=O)Nc2ccccc2OC)n1	-1.3
65	C/C(=N\NC(=O)c1ccc(C(=O)N/N=C(\C)c2ccco2)o1)c1ccco1	0.1
66	COc1cccc2cc(C(=O)NCCc3ccccc3)oc12	0.4
67	COc1cc(-c2cc(C(=O)Nc3ccccc3N3CCOCC3)c3ccccc3n2)cc(OC)c1OC	-0.8
68	COc1ccc(NS(=O)(=O)c2ccc(OCC(=O)N3CCOCC3)cc2)cc1Cl	0.5
69	O=C(c1ccco1)c1cn(CC(=O)N2CCCc3ccccc32)c2ccccc12	3.8
70	CN1CCN(C(=O)C2=C[C@H](c3csc4ccccc34)C[C@H](OCCCCO)O2)CC1	-0.6
71	O=C(COc1ccccc1Cl)N1CCN(c2ccccn2)CC1	-2.4
72	CC(=O)OCCCN1c2ccccc2Nc2nnc(-c3ccccc3)cc21	-0.5

The list goes on, overlapping the part above by 3 compounds.
#	SMILES	STK33 inh
70	CN1CCN(C(=O)C2=C[C@H](c3csc4ccccc34)C[C@H](OCCCCO)O2)CC1	-0.6
71	O=C(COc1ccccc1Cl)N1CCN(c2ccccn2)CC1	-2.4
72	CC(=O)OCCCN1c2ccccc2Nc2nnc(-c3ccccc3)cc21	-0.5
73	O=C(O)c1ccccc1OCc1ccccc1Br	-2.1
74	Cc1cccc(-c2nc3cc([N+](=O)[O-])ccc3o2)c1	1.5
75	Cc1ccccc1CS(=O)(=O)CCC(=O)NCCCN1CCN(c2ccccc2F)CC1	-1.4
76	COCCCNC(=O)CSc1nc2ccccc2c(=O)n1Cc1ccc2c(c1)OCO2	0.1
77	COc1cccc(Nc2nc3cc(OC)ccc3cc2C#N)c1	1.1
78	CCCOc1ccc2oc(=O)c3c(c2c1)CCCN3C(=O)CN(C)Cc1ccccc1	-0.3
79	CN1CCN(NC(=O)c2ccc(COc3ccccc3Br)o2)CC1	-0.9
80	O=C(Nc1cscc1S(=O)(=O)c1ccccc1)c1ccccc1Cl	0.7

Arranged by the number under STK33 inh (low to high): some entries from above.
# | SMILES | STK33 inh
21 | COc1cc(OC)c(C(=O)NCCCn2ccnc2)cc1OC | -2.5
49 | O=C(NCc1cccnc1)Nc1cccc(F)c1 | -2.1
56 | CCC1(C)Cc2c(sc3nc4n(c(=O)c23)CCCS4)CO1 (stereo not drawn) | 0.3

More structures follow.
No.	mol	STK33 inh
81	COc1ccccc1-c1nnc2n1N=C(C(C)(C)C)CS2	-0.5
82	C=CCn1c(Sc2nnc(C)s2)nc2c1c(=O)[nH]c(=O)n2C	-1.0
83	CCn1c(SCc2nc3ccccc3s2)nnc1-c1cccs1	0.2
84	CCN(C(=O)CSc1nnc(-c2ccc3c(c2)OCO3)o1)C1CCS(=O)(=O)C1 (stereo not drawn)	0.7
85	Cn1ccnc1Sc1nc(Nc2cccc(Cl)c2)nc(N2CCOCC2)n1	0.6
86	CC(=O)O[C@@H]1[C@H](OC(=O)CC(C)C)c2c(ccc3ccc(=O)oc23)OC1(C)C	-0.7
87	O=C(Nc1cccc2ccccc12)c1ccc(OC(=S)N2CCOCC2)cc1	1.0
88	O=C1NC(=S)N/C1=C\c1ccccc1OCc1ccc(C(=O)O)cc1	-0.8
89	O=C1C=C(NCc2ccc3c(c2)OCO3)CC(c2ccccc2)C1 (stereo not drawn)	-1.3
90	CCOc1ccccc1NC(=O)CSc1nnnn1-c1ccc(C(=O)OC)cc1	-2.1
91	COc1cc(C(=O)NC2CC3CCCC(C2)N3C2CC2)cc(OC)c1OC (stereo not drawn)	0.6
92	COc1cccc(-c2nc(CS(=O)(=O)CC(=O)Nc3cc(F)ccc3F)c(C)o2)c1	0.0
93	Cc1cc(F)c(F)c(C(=O)N2CCC(C)CC2)c1Cl	0.7
94	CC(Sc1ccc(Cl)cc1)C(=O)NCc1cccnc1 (stereo not drawn)	-0.2
95	O=C(Nc1ccc(Cl)cc1)C1c2cccc[n+]2CC(=O)N1Cc1ccc2c(c1)OCO2 (stereo not drawn)	-2.5
96	CC(C)(C)OC(=O)NCCCC1=CC2=CC(=O)C(C)(OC(=O)c3ccco3)C(=O)C2=CO1 (stereo not drawn)	-4.1
97	COC(=O)c1c(NC(=O)c2ccnn2C)sc(C)c1C	0.3
98	O=C(O)c1ccc(N2CCCC2=O)cc1	-1.1
99	CCc1cc2cc(C(=O)N3CCN(Cc4ccccc4)CC3)sc2s1	-1.7
100	Cc1ccc(SCC(=O)Nc2ccc(C(=O)Nc3ccc(O)cc3)cc2)cc1	-0.7
101	Cc1ccc(S(=O)(=O)N2CCCCC2CCNC(=O)C(=O)NC2CC2)cc1 (stereo not drawn)	1.1
102	O=C(c1ccc(Sc2cccc(Cl)c2)c([N+](=O)[O-])c1)N1CCN(c2ccccn2)CC1	-0.6
103	CCOC(=O)c1ccccc1NC(=O)Cn1cnc2c(cnn2-c2ccccc2)c1=O	0.0
104	CC(=O)Nc1cccc(NC(C)=C(C#N)C#N)c1	0.8
105	COc1ccc(OC)c(/C=N/NC(=O)c2ccc(N(C)S(=O)(=O)c3ccccc3)cc2)c1	-0.7
106	O=C(NCc1ccccc1)c1cccc(S(=O)(=O)N2CCOCC2)c1	-1.1
107	Cc1ccc(Nc2ncc3c(n2)CC(c2ccco2)CC3=O)c(C)c1 (stereo not drawn)	0.7
108	Cc1ccccc1OCC(=O)N/N=C1\CCOc2c(C)cccc21	-0.3
109	CCCN=C1NC(=O)C(CC(=O)NCCc2ccccc2)S1 (stereo not drawn)	-0.1
110	CC(=O)Nc1ccc(C(=O)NC(CC(=O)O)c2ccc(Cl)cc2)cc1 (stereo not drawn)	-0.1
111	Cc1ccc(C)c(NC(=O)CCN2CCOCC2)c1	-0.5
112	O=C(CN1CCCCC1)Nc1cc(Cl)ccc1Oc1ccccc1	0.5
113	O=C(Cc1ccccc1)NNC(=O)Cc1ccccc1	-2.3
114	COc1cccc(C(=O)N2CCN(C(=O)c3cccs3)CC2)c1OC	-1.4
115	O=C(CCNS(=O)(=O)c1cccc2nsnc12)NCc1cccs1	-0.8
116	Cc1cc(C)nc(SCc2ccc(C(=O)NN=C3C4CC5CC(C4)CC3C5)cc2)n1	-1.5
117	O=C(O)c1cccc2c1C(=O)c1ccc(-c3ccc(Cl)c(C(F)(F)F)c3)cc1S2(=O)=O	2.2
118	COc1ccc(-n2c(COc3ccc(C)cc3)n[nH]c2=S)cc1	0.6
119	CC(C)COC(=O)c1ccc2c(c1O)C(=O)c1ccccc1C2=O	1.4
120	COc1cc2c(cc1OC)CN(Cc1cc(=O)n3c(-c4ccccc4)csc3n1)CC2	-2.2
121	CC(C)CC1(C)NC(=O)N(CC(=O)Nc2cccc(S(=O)(=O)N(C)c3ccccc3)c2)C1=O (stereo not drawn)	-0.3
122	COc1ccc2oc(=Nc3cccc(F)c3)c(C(N)=O)cc2c1	0.0
123	Cc1ccc(N2CC(C(=O)NCCc3ccc(S(N)(=O)=O)cc3)CC2=O)cc1 (stereo not drawn)	0.1
124	O=C(Nc1ccc(Cc2ccncc2)cc1)c1cccs1	0.1
125	CCOC(=O)c1[nH]c(C)c(C(=O)Nc2ccc(C)cc2C)c1C	2.1

High-throughput results deposited in PubChem BioAssay by Broad Institute.
